# Bead autofluor: counter-screen for toxin protease inhibitors: compound fluorescence; compound autofluorescence counterscreen, microsphere flow cytometry; active compounds read high; fluorescence intensity (concentration not given with the values); 3.1% of 360,000 active; AID 624483;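 active means at least 3 SD above the mean of all compounds, about 16000 in these data; inconclusive means too few beads counted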;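 further: 100 nL of 1 mM stock went into each well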
# PrP 5UTR inh: inhibition of PrP 5' UTR reporter expression | 0.35% of 340,000 active | cell-based PrP 5' UTR mRNA reporter, plate reader | inhibition, % (concentration not given with the values) | AID 488862;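 active means every replicate at 50% or more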;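 further: 0 = median of the neutral control wells; tested in H4 reporter cells; numbers are from one replicate; inactives centre near -14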
# Sa ugtP lethal: kills S. aureus RN4220 lacking UgtP. AID 1259309. S. aureus RN4220 ugtP deletion, OD600 growth, 16 h; some inactives read as strong as hits. 0.54% of 330,000 active. growth inhibition, % (test concentration not listed);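 active means z-score under -3 and OD600 up to 0.15 on both plates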;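 further: plate controls were untreated wells for no effect and antibiotic for full effect; wells of about 80 µL received 100 nL stock; the first replicate is given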
# RN4220 kill: kills Staphylococcus aureus RN4220; AID 1259311; inhibition, % (test concentration not listed); 0.33% of 330,000 active; S. aureus RN4220 growth, OD600, 16 h;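 active means z-score of -3 or lower and OD600 up to 0.18 on both plates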;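 further: plate controls were untreated cells for no effect and reference antibiotic for full effect; stock transfer was 100 nL into about 80 µL; one replicate is shown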
# BJeLR lethal: kills HRASV12-expressing BJeLR cells; BJeLR (HRASV12) viability, CellTiter-Glo ATP luminescence, 48 h; reference of the scale not given here; inhibition, % (test concentration not listed); 0.17% of 300,000 active; AID 1554;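 active means replicate mean above 50%; inconclusive means above 50% but judged a plate artefact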;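 further: 50 nL library stock added to about 25 µL; numbers are from one replicate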
# Mtb hypoxia rep: inhibitors of hypoxia-regulated fluorescent reporter in Mycobacterium tuberculosis. fluorescence inhibition, % (no concentration beside the values). M. tuberculosis hypoxia-regulated fluorescent reporter, fluorescence. 0.1% of 300,000 active. AID 1159583;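 active means 35 to 45% if threefold the growth effect, above 45% if 1.5-fold the growth effect; inactive means the rest, general growth blockers included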;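 further: wells of about 50 µL received 100 nL stock; 0% = vehicle wells and 100% = reference inhibitor wells; whole bacteria with a GFP reporter of the hypoxia response; strong numbers were not always called active; many hits fall short of the cut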
# Mtb hypoxia rep growth: recorded beside Mtb hypoxia rep, whose call it bears; growth inhibition, %; measured here: M. tuberculosis growth (absorbance);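 0% = vehicle and 100% = reference antibiotic; read after six days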
# * marks the source's active call; other numbers are inactive results; ? = inconclusive; · = not tested or not shown.
No.	Compound	Bead autofluor	PrP 5UTR inh	Sa ugtP lethal	RN4220 kill	BJeLR lethal	Mtb hypoxia rep	Mtb hypoxia rep growth
1	O=S(=O)(c1ccccc1)N1CCN(Cc2ccccc2)CC1	3021	-16	7	1.4	-16	4	6
2	O=C(Nc1cccc(F)c1)C1CCCN(S(=O)(=O)c2ccc(-n3cnnn3)cc2)C1 (stereo unspecified)	5706	-7	-15	3.4	7	16	8
3	COC(=O)C1=C(c2ccccc2)CC2CCC1N2C(=O)NC1CC1 (stereo unspecified)	·	·	2	3.8	·	10	10
4	COc1ccc(CCN(Cc2cc3cc(C)ccc3[nH]c2=O)C(C)=O)cc1OC	3980	-14	1	1.7	0	10	-1
5	Cn1ncc(N=Cc2c(O)ccc3ccccc23)c1C(=O)Nc1cccc(Cl)c1	4526	-27	-6	6.2	-3	3	-1
6	CCCC(=O)Nc1cccc(NC(=O)c2cccc([N+](=O)[O-])c2C)c1	2472	-5	2	0.3	-2	-4	6
7	Cc1onc(-c2c(F)cccc2Cl)c1C(=O)Nc1c(C)n(C)n(-c2ccccc2)c1=O	8233	-5	3	2.8	-5	-4	4
8	CNC(=O)N(O)C1N(N=Cc2ccc(N(C)C)cc2)C(=S)SC1(C)C (stereo unspecified)	·	·	12	4.3	·	-8	3

# The closing three compounds of the section above come first, to join the parts:
No.	Compound	Bead autofluor	PrP 5UTR inh	Sa ugtP lethal	RN4220 kill	BJeLR lethal	Mtb hypoxia rep	Mtb hypoxia rep growth
6	CCCC(=O)Nc1cccc(NC(=O)c2cccc([N+](=O)[O-])c2C)c1	2472	-5	2	0.3	-2	-4	6
7	Cc1onc(-c2c(F)cccc2Cl)c1C(=O)Nc1c(C)n(C)n(-c2ccccc2)c1=O	8233	-5	3	2.8	-5	-4	4
8	CNC(=O)N(O)C1N(N=Cc2ccc(N(C)C)cc2)C(=S)SC1(C)C (stereo unspecified)	·	·	12	4.3	·	-8	3
9	COC(=O)c1cc(S(=O)(=O)NCCc2ccccc2)c[nH]1	5365	-19	6	2.3	16	6	10
10	CC1(C)NC(=O)N(CCOc2cccc(Oc3ccccc3)c2)C1=O	10711	-15	4	5.0	14	0	12
11	Cc1nc(NCCC(C)C)c2nnn(Cc3ccccc3)c2n1	3719	-9	-1	-6.0	7	-15	3
12	O=S(=O)(c1cccc2nonc12)N1CCN(c2ccccc2F)CC1	4926	-7	-2	12	8	18	6
13	Fc1cccc(-c2csc(-c3ccno3)n2)c1	6123	-22	9	10	-12	4	7
14	CC(NS(=O)(=O)c1ccccc1)C(=O)NCc1ccco1 (stereo unspecified)	5883	-11	-4	2.3	-10	0	8
15	CCOC(=O)CCc1c(C)nc2c(c(C)nn2-c2ccc(C)cc2)c1C	3875	-37	5	3.7	10	-4	0
16	N#C/C(=C\c1cn(Cc2ccc(F)cc2)c2ccccc12)C(=O)NCc1ccco1	2156	-12	-5	2.3	11	0	1
17	Cc1ccc(C(=O)N2CCN(C(=O)N3CCOCC3)CC2)cc1	2744	-5	7	4.2	1	·	·
18	Cc1ccc(NC(=O)CCNC(=O)N2C[C@H]3C[C@@H](C2)c2cccc(=O)n2C3)c(C)c1	5794	0	2	-1.0	-7	·	·
19	CCC1(CC)NC(=O)N(CC(=O)N2N=C(c3ccc(Cl)cc3)CC2c2ccco2)C1=O (stereo unspecified)	4397	-7	1	1.7	0	-13	-2
20	COc1ccc(S(=O)(=O)N2CCN(CC(=O)Nc3c(C)n[nH]c3C)CC2)cc1OC	3156	-5	-1	1.2	·	5	4
21	O=C(Nc1ccc(Br)cc1F)c1ccncc1	2726	-10	-2	-14	2	8	7
22	O=C1c2ccccc2C(=O)N1C(CO)C(O)c1ccc([N+](=O)[O-])cc1 (stereo unspecified)	3889	-11	1	0.4	6	-4	7
23	C=CCN(c1ccccc1OC)S(=O)(=O)c1cccc(C(=O)NCc2ccco2)c1	3495	-14	3	2.3	·	2	2
24	Oc1ccc(-c2csc(Nc3cccc4ccccc34)n2)cc1O	3483	-16	-19	0.3	-5	8	-5
25	CC(Sc1cccc(C(F)(F)F)c1)C(=O)NC(N)=O (stereo unspecified)	6002	-23	9	5.1	19	12	11
26	Cc1ncc(CO)c(C=NNc2cccc(Cl)n2)c1O	·	·	2	-0.7	·	5	0
27	CCOC(=O)CCCSc1nc2sc(C)c(C)c2c(=O)[nH]1	5337	-8	6	2.1	5	5	15
28	COc1cccc2sc3ccc(NCc4ccc5c(c4)OCO5)cc3c(=O)c12	3279	5	-23	-4.8	-8	-1	-4
29	CCCCn1c(N)c(N(CCC(C)C)C(=O)C2=NN(c3cc(C)ccc3C)C(=O)CC2)c(=O)[nH]c1=O	4871	-26	7	-2.6	10	5	10
30	Cc1ccc(CS(=O)(=O)c2ccc(C(=O)N3CCN(c4ccccn4)CC3)cc2[N+](=O)[O-])cc1	4505	-27	10	4.9	9	7	7
31	COc1ccccc1CN1CC(C(=O)NCCc2ccc(C)o2)CCC1=O (stereo unspecified)	5598	-2	1	2.7	3	6	9
32	O=C(CC1CC=CCCC(Cc2ccc(F)cc2)C(=O)OCCNC1=O)NC(CO)Cc1ccccc1 (stereo unspecified)	·	·	-14	-2.7	·	-9	7
33	O=C(NCCc1ccccn1)c1cc(C(=O)C2CCCCC2)c[nH]1	14848	-23	10	-1.9	-14	2	-1
34	COc1ccc(NC(=O)COc2cccc3c2CCN(C)C3=O)c(OC)c1	5827	-9	-1	3.0	-15	7	15
35	COc1ccc(NS(=O)(=O)c2cc(NC(=O)c3ccccc3F)ccc2N2CCCC2)cc1	4919	-10	0	-2.0	-5	-6	-3
36	CC(C)CC(CSc1ccccc1)N1CCN(CCc2ccccc2)CCC1=O (stereo unspecified)	·	·	4	3.3	·	6	1
37	CC1(C(=O)NC2CCCCC2)CCC(=O)N1Cc1ccc2c(c1)OCO2 (stereo unspecified)	3271	-11	3	4.8	12	-11	8
38	O=C(C[n+]1ccc(-c2ccccc2)cc1)Nc1ccc([N+](=O)[O-])cc1	4020	-6	0	-0.3	8	4	11
39	CCOC(=O)c1nc2ccccc2c(C)c1C	4294	-3	8	4.3	-5	7	0
40	CC1CCCCC12NC(=O)N(CC(=O)N1CCc3ccccc31)C2=O (stereo unspecified)	9252	-14	6	0.3	·	5	-1

# From compound 34 up to 37, copied from above:
No.	Compound	Bead autofluor	PrP 5UTR inh	Sa ugtP lethal	RN4220 kill	BJeLR lethal	Mtb hypoxia rep	Mtb hypoxia rep growth
34	COc1ccc(NC(=O)COc2cccc3c2CCN(C)C3=O)c(OC)c1	5827	-9	-1	3.0	-15	7	15
35	COc1ccc(NS(=O)(=O)c2cc(NC(=O)c3ccccc3F)ccc2N2CCCC2)cc1	4919	-10	0	-2.0	-5	-6	-3
36	CC(C)CC(CSc1ccccc1)N1CCN(CCc2ccccc2)CCC1=O (stereo unspecified)	·	·	4	3.3	·	6	1
37	CC1(C(=O)NC2CCCCC2)CCC(=O)N1Cc1ccc2c(c1)OCO2 (stereo unspecified)	3271	-11	3	4.8	12	-11	8

# (continued)
No.	Compound	Bead autofluor	PrP 5UTR inh	Sa ugtP lethal	RN4220 kill	BJeLR lethal	Mtb hypoxia rep	Mtb hypoxia rep growth
41	COc1ccc(S(=O)(=O)N2CCCC2C(=O)n2nc(C)cc2C)cc1 (stereo unspecified)	2512	-9	14	1.3	-2	7	15
42	CCc1nnc(NC(=O)CN2CCN(Cc3cccc(OC)c3)CC2)s1	·	2	7	5.8	-11	5	1
43	O=C(CNCc1ccccc1)Nc1ccc(Cl)cc1	4199	-22	10	2.1	-1	16	-5
44	O=[N+]([O-])c1ccc(Sc2cccc3cccnc23)c([N+](=O)[O-])c1	20643*	-7	34	3.7	·	2	5
45	COc1cccc(CC(=O)NNC(=O)CN(C)S(=O)(=O)c2ccc(C)cc2)c1	4297	-7	3	5.1	·	16	8
46	O=C(N/N=C/C(Br)=C/c1ccccc1)c1ccncc1	4768	-19	·	·	26	·	·
47	O=C1C(=NO)C(c2ccccc2)Oc2ccccc21 (stereo unspecified)	4388	-9	-2	7.1	·	10	6
48	COc1cc(NC(=O)COc2ccccc2[N+](=O)[O-])ccc1NC(=O)c1cccs1	3335	-17	22	21	23	7	2
49	Cc1noc2ncnc(Oc3ccc(F)cc3)c12	2183	-8	4	2.6	4	·	·
50	CN(CC(=O)N1CCCc2c1c(=O)oc1ccc(O)cc21)Cc1ccccc1	20887*	-33	-6	2.3	7	3	6
51	O=C(NCCc1ccncc1)Nc1ccc(Cl)c(Cl)c1	4445	-6	-14	8.4	-7	5	10
52	O=[N+]([O-])c1ccc(S(=O)(=O)N/N=C/c2ccsc2)cc1	5973	-22	·	·	4	·	·
53	O=C(CN1CCC(C(=O)c2ccc3c(c2)OCCO3)CC1)Nc1ccccc1F	3806	-15	4	1.3	-10	5	17
54	CCCCNC(=O)/C(=C\c1ccc([N+](=O)[O-])o1)NC(=O)c1ccccc1	3774	-20	-3	8.9	0	-14	17
55	CCc1nnc(NS(=O)(=O)c2ccc(NC(=O)c3ccc(C#N)cc3)cc2)s1	3919	-18	3	-0.5	-6	0	-2
56	COc1ccc2cc(S(=O)(=O)NC3CC(C)(C)NC(C)(C)C3)ccc2c1	?	-4	2	-0.5	15	3	5
57	CCN(Cc1ccncc1)S(=O)(=O)c1ccc(C(C)=O)cc1	22742*	1	-5	9.6	14	-4	4
58	CCN(CC)S(=O)(=O)c1ccc(N2CCCC2)c(NC(=O)Cc2ccc(OC)cc2)c1	5385	-27	·	·	-7	·	·
59	C/C(=N\NC(=O)c1nnn(-c2nonc2N)c1-c1ccc2c(c1)OCO2)c1cccs1	4612	1	·	·	-2	·	·
60	COc1ccc(CN2CCCCCC2)cc1Br	3947	-13	4	-1.0	9	2	11
61	O=C(CSc1nnc(C2CCCCC2)n1-c1ccccc1)NCc1ccco1	8661	8	-4	2.5	0	11	7
62	CC(=O)Nc1ccc(C2=NNC(=Nc3ccc(S(=O)(=O)N4CCOCC4)cc3)SC2)cc1	4649	-12	11	17	3	9	-4
63	Cc1cccc(-c2nnc(SCC(=O)c3ccc(O)cc3O)n2C)c1	3902	-6	-1	3.2	0	-4	3
64	CC(C)CCN(C(=O)Cc1ccc(Cl)c(Cl)c1)c1c(N)n(Cc2ccccc2)c(=O)[nH]c1=O	4076	-2	-3	-2.5	-8	13	1
65	O=C(NN=CC1CC=CCC1)c1cc2ccccc2cc1O (stereo unspecified)	·	·	-7	1.9	·	1	1
66	CC1CCN(S(=O)(=O)c2cccc3cccnc23)CC1	4561	2	1	2.5	6	3	-2
67	Cc1ccc(N2CC(C(=O)N3CCN(c4ccccc4)CC3)CC2=O)cc1 (stereo unspecified)	7300	-16	9	6.6	-1	8	1
68	COc1cc2c(cc1NC(=O)c1ccc3c(c1)OCO3)oc1ccccc12	8166	-112	58	10	-6	12	4
69	Cc1ccc(Cl)c(OCC(=O)Nc2ccc(S(=O)(=O)NC3=NCCCCC3)cc2)c1	5395	-8	·	·	16	·	·
70	COc1cc(C=NNc2cccc3cccnc23)cc(OC)c1O	·	·	-2	1.2	·	14	9
71	CC(NC(=O)c1cccc(N(C)C)c1)c1ccc(-n2ccnc2)cc1 (stereo unspecified)	6687	-13	-4	-5.4	9	-7	0
72	CC(=O)Nc1ccc(C(=O)OCC(=O)NCc2cccs2)cc1	6509	-22	7	3.1	·	5	4

# Look-ups from the list.
# `CC1CCN(S(=O)(=O)c2cccc3cccnc23)CC1` | PrP 5UTR inh: 2
# `Cc1nc(NCCC(C)C)c2nnn(Cc3ccccc3)c2n1` | Bead autofluor: 3719
# `COc1ccc(S(=O)(=O)N2CCCC2C(=O)n2nc(C)cc2C)cc1` (stereo unspecified) | RN4220 kill: 1.3
# `Cc1onc(-c2c(F)cccc2Cl)c1C(=O)Nc1c(C)n(C)n(-c2ccccc2)c1=O` | RN4220 kill: 2.8

# The list goes on.
No.	Compound	Bead autofluor	PrP 5UTR inh	Sa ugtP lethal	RN4220 kill	BJeLR lethal	Mtb hypoxia rep	Mtb hypoxia rep growth
73	Cc1ccc(O)c(C(=O)c2cnn(C(=O)c3cccc(S(=O)(=O)N(C)C)c3)c2)c1	6566	-3	3	1.5	·	2	5
74	O=C(Nc1cccc(-c2cn3c(n2)SCC3)c1)c1ccc(Br)o1	3907	-18	6	-3.9	·	-8	-4
75	CCOc1ccc(CCNC(=O)CN2C(=O)CCSc3ccccc32)cc1	4253	-9	3	0.7	-13	-4	-3
76	CN(C(=O)CSc1nnc(-c2cccs2)n1N)c1ccccc1	3188	-39	0	5.9	·	0	2

# Screens deposited in PubChem BioAssay by several laboratories.
